VDR inh = blocks the human vitamin D receptor; Potency, µM, inactives show max response, negative = inhibition, hits mostly inhibitors; VDR-SRC2-3 peptide fluorescence polarization, 2 h; AID 504847; P11473; 400,000 compounds, 0.93% hits; active = well fitted inhibition curve with a large enough effect; inconclusive = small, poorly fitted or top-dose-only effect, or another doubt; inactive = no such curve, though single readings can be large or run the other way; note: series mostly up to about 120 µM
Target sequence (P11473 whole entry, looked up): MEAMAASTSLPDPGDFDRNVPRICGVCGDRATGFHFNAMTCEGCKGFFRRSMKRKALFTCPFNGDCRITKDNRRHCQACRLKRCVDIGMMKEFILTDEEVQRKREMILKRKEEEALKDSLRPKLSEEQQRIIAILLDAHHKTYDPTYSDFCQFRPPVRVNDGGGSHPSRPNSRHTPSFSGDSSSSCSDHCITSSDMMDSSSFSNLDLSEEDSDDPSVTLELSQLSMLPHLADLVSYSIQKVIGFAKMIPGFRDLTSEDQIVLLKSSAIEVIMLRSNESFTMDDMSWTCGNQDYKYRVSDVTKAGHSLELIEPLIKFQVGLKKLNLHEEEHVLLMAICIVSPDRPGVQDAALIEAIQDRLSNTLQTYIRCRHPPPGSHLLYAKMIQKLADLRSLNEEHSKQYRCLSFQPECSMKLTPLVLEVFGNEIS
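Fluorescence polarization assay of small-molecule disruption of VDR binding to coregulator peptide SRC2-3. Compounds and controls pin-transferred, then read after 2 h incubation at ambient room temperature.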
Numbers without * were called inactive; ? = inconclusive; & = joins results of further samples. % is set by controls: 0 for no effect and ±100 for the full control effect; potency is the fitted concentration of half-maximal effect.

SMILES | VDR inh
O=C(CSc1nnc(CN2CCOCC2)n1-c1ccc(Cl)cc1)Nc1cc(Cl)ccc1O | 17%
Cc1ccc2oc(C(=O)Nc3nnc(C)s3)c(C)c2c1 | 0%
O=C(CN1CCCC1)Nc1ccc(Br)cc1 | -6%
CC(=O)/C(=N/Nc1ccc(Br)cc1)Sc1cccc2cccnc12 | -16%
CCN1CCN(c2ccc(S(=O)(=O)N3CCCCC3)cc2NC(=O)/C=C/c2ccc(OC)c(OC)c2)CC1 | -10%
CCCCn1c(NCc2ccccn2)nc2ccccc21 | 6%
Cc1ccc(CNC(=O)C2CCN(S(=O)(=O)c3c(C)noc3/C=C/c3c(C)cc(C)cc3C)CC2)cc1 | -5%
Cc1ccc(NC(=O)C2CC(=O)OC23CCOC(C)(C)C3)cc1 (configuration not stated) | 1%
COC(=O)COC(=O)c1ccc(O)cc1 | -15%
CCCCCCCC1=Cc2ccc(F)cc2C(C(C(=O)OC)C(=O)OC)N1C(=O)OC (configuration not stated) | 3%
Nc1nc(N2CCN(Cc3ccccc3)CC2)n[nH]1 | 19%
CC(=O)c1cnc2cc(-c3ccc(C)cc3)nn2c1C | -17%
N#CC1=C2SCC(O)(c3ccccc3)N2C(=O)CC1c1cccs1 (configuration not stated) | -7%
COc1cc2c(cc1OC)C(c1ccc(Cl)cc1)N(c1cccc(C#N)c1)C(=O)C2 (configuration not stated) | 0%
Cc1cc(C(=O)OCC(=O)N2CCOCC2)c2ccccc2n1 | ?
COCCSc1nnc(NC(=O)COc2ccc3c(c2)OCO3)s1 | -11%
CCn1c(=O)n(CC(=O)N2CC(C)CC(C)C2)c(=O)c2ccccc21 (configuration not stated) | 3%
COc1cc(-c2cc(C(=O)Nc3ccc(O)cc3)c3ccccc3n2)cc(OC)c1OC | -24%
C/C1=C2N=C(/C=C3N=C(/C(C)=C4\[N-]C(C)(C5N=C1C(C)(CCC(=O)NCC(C)OP(=O)([O-])O[C@H]1C(O)C(n6cnc7cc(C)c(C)cc76)O[C@@H]1CO)C5CC(N)=O)C(C)(CC(N)=O)C4CCC(N)=O)C(C)(CC(N)=O)C\3CCC(N)=O)C(C)(C)C/2CCC(N)=O.[CH2-]C1OC(n2cnc3c(N)ncnc32)C(O)C1O.[Co] (some centres not stated) | ?
COC(=O)Cn1c(=NC(=O)CSC(C)=O)sc2ccccc21 | 7%
COc1ccc(C(CNC(=O)CCC(=O)c2ccc(C)s2)N2CCOCC2)cc1 (configuration not stated) | -12%
O=C(CN1CCC(n2cnc3cc(F)ccc32)CC1)Nc1ccccc1Br | -17%
COc1ccc(Cl)cc1NC(=O)c1cccc(NC(=O)CCC(=O)O)c1 | -5%
Cc1ccc(S(=O)(=O)N[C@@H](CC(C)C)C(=O)NCc2ccco2)cc1 | -21%
COc1cccc(NC(=O)CN(C)C(=O)c2c(C)nn(-c3ccccc3)c2Cl)c1 | -4%

Copied from the list.
In VDR inh, Cc1ccc(NC(=O)C2CC(=O)OC23CCOC(C)(C)C3)cc1 (configuration not stated) shows 1%
In VDR inh, COCCSc1nnc(NC(=O)COc2ccc3c(c2)OCO3)s1 shows -11%

Returning to the listing; the 7 compounds before the break are reprinted first.
SMILES | VDR inh
C/C1=C2N=C(/C=C3N=C(/C(C)=C4\[N-]C(C)(C5N=C1C(C)(CCC(=O)NCC(C)OP(=O)([O-])O[C@H]1C(O)C(n6cnc7cc(C)c(C)cc76)O[C@@H]1CO)C5CC(N)=O)C(C)(CC(N)=O)C4CCC(N)=O)C(C)(CC(N)=O)C\3CCC(N)=O)C(C)(C)C/2CCC(N)=O.[CH2-]C1OC(n2cnc3c(N)ncnc32)C(O)C1O.[Co] (some centres not stated) | ?
COC(=O)Cn1c(=NC(=O)CSC(C)=O)sc2ccccc21 | 7%
COc1ccc(C(CNC(=O)CCC(=O)c2ccc(C)s2)N2CCOCC2)cc1 (configuration not stated) | -12%
O=C(CN1CCC(n2cnc3cc(F)ccc32)CC1)Nc1ccccc1Br | -17%
COc1ccc(Cl)cc1NC(=O)c1cccc(NC(=O)CCC(=O)O)c1 | -5%
Cc1ccc(S(=O)(=O)N[C@@H](CC(C)C)C(=O)NCc2ccco2)cc1 | -21%
COc1cccc(NC(=O)CN(C)C(=O)c2c(C)nn(-c3ccccc3)c2Cl)c1 | -4%
O=C(NCCc1ccccc1)C1CCCN(c2nc3ccccc3s2)C1 (configuration not stated) | 15%
O=C(c1ccccc1Br)N(Cc1ccco1)C1CCS(=O)(=O)C1 (configuration not stated) | 11%
COc1ccc(CNC(=O)CSc2nnc(-c3cccnc3)n2N)cc1 | 20%
CC(=O)c1cccc(OCC(O)CNCCc2ccc(Cl)cc2)c1 (configuration not stated) | 0%
CCOc1ccc(-c2nnc(SCC(=O)c3ccc(F)cc3)n2-c2ccccc2)cc1 | -15%
CC(=O)N1c2ccccc2C2(O)N=C(C)SC12 (configuration not stated) | ?
CCCCO | 7%
NC(=O)C1CCN(C2=C(NS(=O)(=O)c3ccc(Cl)cc3)C(=O)c3ccccc3C2=O)CC1 | -9%
CSCC[C@H](NC(=O)[C@H](CC(C)C)NC(=O)[C@@H]1CCCN1C(=O)[C@H](Cc1ccccc1)NC(=O)[C@H](Cc1ccccc1)NC(=O)[C@@H]1CCC(=O)N1)C(N)=O | 5%
CC(=O)Nc1ccc(NC(=O)c2cc(S(=O)(=O)N3CCCCC3)ccc2C)cc1 | -9%
Cc1noc(C)c1S(=O)(=O)N(C)C[C@H]1Oc2c(NC(=O)C3CCCCC3)cccc2C(=O)N([C@H](C)CO)C[C@@H]1C | 0%
CSc1nc(N)nc(SCC(=O)CC(=O)OC(C)C)c1C#N | 0%
CCN1CN(CCc2ccccc2)CNC1=S | 11%
O=C(CN(Cc1ccco1)C(=O)c1ccc(N2CCCC2=O)cc1)Nc1ccccc1C(F)(F)F | 3%
Cn1nnnc1SCCCNCc1ccccc1OCc1ccccc1F | 9%
COc1ccc(OC)c(NC(=O)c2cc3c(Cl)nc4ccccc4c3s2)c1 | -13%
N#CCC(=O)NNc1c([N+](=O)[O-])cc(C(F)(F)F)cc1[N+](=O)[O-] | -11%
CN(CC(=O)Nc1cccc(F)c1)C(=O)CC1CC2CCC1C2 (configuration not stated) | 9%
CSC(=NC1CCCCC1)NS(=O)(=O)c1ccccc1 | 5%&7%
NC(=O)c1cc(S(=O)(=O)N2CCN(c3ccc([N+](=O)[O-])cc3)CC2)cs1 | -14%
COc1cccc(-c2sc3cc(OC)c(OC)cc3c2-c2ccc(OCCN3CCCCC3)cc2)c1 | 12%
Cc1ccc(C(=O)c2cn(Cc3ccccc3F)c3cc4c(cc3c2=O)OCO4)cc1 | 13%
CC(C)CN(CC(C)C)C(=O)CCCC(=O)N(CC(C)C)CC(C)C | 1%
COc1ccc2ccn(C)c2c1 | 9%
CSc1ccc(C(=O)C2CCCN(Cc3cccc4nccnc34)C2)cc1 (configuration not stated) | 5%

Exported with each value named: entries from further up.
NC(=O)c1cc(S(=O)(=O)N2CCN(c3ccc([N+](=O)[O-])cc3)CC2)cs1
- VDR inh = -14%

CC(=O)c1cccc(OCC(O)CNCCc2ccc(Cl)cc2)c1 (configuration not stated)
- VDR inh = 0%

Remaining list, next part.
SMILES | VDR inh
C=CCn1c(SCC(=O)NC2CC2)nc2ccccc2c1=O | 5%
COc1ccccc1NC(=O)C(=O)c1cc(C)n(-c2ccccc2F)c1C | 15%
Fc1ccc(NC(=S)NC2CCCCC2)c(F)c1F | -20%
CCN(CC(=O)NCc1ccc(Cl)cc1)C(=O)c1ccc2cc(OC)ccc2c1 | 3%
CCN(CC)S(=O)(=O)c1cccc(NC(=O)COC(=O)CCC(=O)c2ccc(F)cc2)c1 | 3%
O=C(Nc1nncs1)c1ccc(F)c(S(=O)(=O)N2CCCCC2)c1 | -2%
COCCn1nnnc1C(c1cccs1)N1CCCC(C)C1 (configuration not stated) | 9%
C=C1CCC2[C@](C)(CO[C@@H]3O[C@H](CO)[C@@H](O)[C@H](O)[C@H]3O)CCC[C@@]2(C)[C@@H]1CCC1=CCOC1=O (some centres not stated) | 4%
N#Cc1nc(COc2ccc(-c3ccccc3)cc2)oc1N1CCC(C(N)=O)CC1 | -12%
O=S(=O)(NC1CCN(Cc2ccccc2)CC1)c1ccc2ccccc2c1 | -1%
COc1ccc(NC(=O)C(=O)N/N=C/c2cccnc2)c(OC)c1 | 8%
COc1ccc(NC(=O)CCCn2nc(C)c3c(C)n(-c4ccccc4)nc3c2=O)cc1OC | 2%
Cc1csc2nc(COc3ccc(NC(=O)COc4ccccc4)cc3)cc(=O)n12 | 6%
Cc1ccc(S(=O)(=O)/N=C2\C=C(Nc3cccc(C(=O)O)c3)C(=O)c3ccccc32)cc1 | -1%
COc1ccc(-c2nc(CSCC(=O)NCCc3ccc(OC)c(OC)c3)c(C)o2)cc1 | 8%
O=C(NCC(c1cccnc1)N1CCOCC1)NC1CCCCC1 (configuration not stated) | 11%
Cc1sc(-n2cccc2)c(C(C)NC(=O)Nc2cccc(C(F)(F)F)c2)c1C (configuration not stated) | 2%
CC(=O)/C=C(\C)NCCNc1c(F)c(F)c(CO)c(F)c1F | 4%
CCn1c(SCc2nc3ccccc3[nH]2)nnc1-c1ccc(OC)cc1 | 5%
CCC/C(=N\NC(=O)Cc1csc(N2CCOCC2)n1)c1ccccc1 | 3%
Cc1ccc(N2CC(C(=O)N3CCC(C(=O)NCCCOC(C)C)CC3)CC2=O)cc1 (configuration not stated) | -14%
COc1ccc(CC(=O)N2CCN(c3ccccn3)CC2)cc1 | 1%
CC1CN(S(=O)(=O)c2cccc(C(=O)Nc3ccc4c(c3)CCC4)c2)CC(C)O1 (configuration not stated) | 11%
COc1ccc(/C=C/C(=O)Nc2ccccc2C)cc1S(=O)(=O)N1CCOCC1 | -17%
O=C(NC1CCCCC1)c1cccs1 | -11%
(cont.)
SMILES | VDR inh
COc1ccc(-c2nc(CNS(=O)(=O)c3ccc(OC)c(OC)c3)cs2)cc1 | -3%
O=C(NCCc1ccc(F)cc1)C1CCCCC1 | -5%
COC(=O)c1ccccc1NC(=O)COc1ccccc1 | 5%
CC12CCC(C(N)=O)(C1Br)C2(C)C (configuration not stated) | -16%
O=C(Nc1ccc(-n2cc(Br)cn2)cc1)c1ccncc1 | 11%
O=C(Nc1ccc(C(=O)N2CCCC2)cc1)C1CCC1 | -4%
CCC(=O)Nc1ccc(N2CCN(C(=O)c3cccs3)CC2)cc1 | 5%
O=C(O)c1csc(-n2nc(-c3ccccc3)cc2C(F)(F)F)n1 | -33%
CCCCN(CC)Cc1ccc(CNC(=O)Nc2ccc(OC)cc2OC)o1 | 17%
Cc1ccc(-c2nc3ncccc3o2)cc1NC(=O)CC(C)C | 0%
CCCCCOC(=O)c1ccccc1C(=O)O | 5%
CSc1ccc(C(=O)N2CCC(CCC(=O)NC3CC3)CC2)cc1 | -9%
COc1ccc(S(=O)(=O)N2CCCCCC2)cc1NC(=O)Cc1ccc(OC)c(OC)c1 | -5%
O=C(COC(=O)Cn1cnc2ccccc2c1=O)Nc1cc(Cl)ccc1[N+](=O)[O-] | -13%
Cn1c(=O)c2[nH]c(SCCN3CCCCC3)nc2n(C)c1=S | ?
CC(C)c1ccc(/C=C/C(=O)NCCC2=CCCCC2)cc1 | 0%
CCOc1ccc(N(C(C)C(=O)N2CCOCC2)S(C)(=O)=O)cc1 (configuration not stated) | -7%
CCOC(=O)C1(CC)Oc2ccccc2C(c2ccc(OC)cc2)=C1C(=O)OC (configuration not stated) | 1%&-24%
O=C(N/N=C1\CCc2ccccc21)c1ccccc1O | -5%
NCC(O)CN1CCN(Cc2ccccc2)CC1 (configuration not stated) | -16%
COc1cccc(-n2c(=O)c3cc(OC)c(OC)cc3n(CC(=O)Nc3ccc(F)cc3)c2=O)c1 | -11%
CCCC(=O)C1C(=O)CC(C)(C)C(c2cc(C)no2)C1=O (configuration not stated) | 3%
Cc1c(C(=O)Nc2c(C)n(C)n(-c3ccccc3)c2=O)oc2c(Cl)cccc12 | 9%
CCCN(CCO)Cc1ccc2ccccc2c1 | 19%
CCN(CC)S(=O)(=O)c1ccc(Cl)c(C(=O)NCC2CCCO2)c1 (configuration not stated) | -3%
Further records.
SMILES | VDR inh
CC(=O)c1c(C)[nH]c(C(=O)COC(=O)C2(C)CC2(Cl)Cl)c1C (configuration not stated) | -18%
CCCCCOc1ccc(CSc2ncn[nH]2)cc1 | 0%
CCn1c([N+](=O)[O-])nc2c1c(=O)[nH]c(=O)n2C | 4%
CN(Cc1ccccc1)C(=O)c1cc2c(=O)n(C)c3ccccc3c2s1 | -6%
CCC(Sc1ccccn1)C(=O)Nc1cccc([N+](=O)[O-])c1 (configuration not stated) | 5%
COc1ccc(N2CSC3=C(C#N)C(c4cccs4)CC(=O)N3C2)cc1 (configuration not stated) | -9%
COc1ccc(-c2noc(CN(C)C(=O)c3ccoc3C)n2)cc1OC | 10%
CC(=O)c1ccc(NC(=S)Nc2ccn(Cc3ccc(Br)cc3)n2)cc1 | -16%
CCCCc1nnc(NC(=O)C(C)Sc2nc(N)cc(=O)[nH]2)s1 (configuration not stated) | -4%
CCn1c(=N)n(CC(=O)c2cccc(OC)c2)c2ccccc21 | -2%
CC1CCc2cc(F)ccc2N1C(=O)CSc1nnc2c3cc(F)ccc3n(C)c2n1 (configuration not stated) | -1%
CCN(CC)S(=O)(=O)c1ccc(N2CCOCC2)c(NC(=O)CN2C(=O)NC3(CCCC3)C2=O)c1 | 1%
Brc1cnc(N2CCCCC2)nc1N1CCOCC1 | 4%
C=CCC1(C(=O)N(C)Cc2ccccc2)CCN(C(=O)OC(C)(C)C)CC1 | -32%
CCCCN(C(=O)CSc1ncn[nH]1)c1c(N)n(Cc2ccccc2)c(=O)[nH]c1=O | -6%
O=C(NC(=S)NCc1ccccc1)c1cccs1 | ?
COCCN(C(=O)CSc1nnc(-c2cccc(F)c2)n1N)c1c(N)n(CC(C)C)c(=O)[nH]c1=O | 13%
O=S(=O)(c1ccccc1)N1CCC2(CC1)CN(Cc1ccccc1)C2 | -1%
O=C(CCCc1nc(-c2ccccc2Cl)no1)NCc1cccnc1 | 6%
Cc1cc(C)c(S(=O)(=O)Nc2ccc(C(N)=O)cc2)c(C)c1 | -3%
Cc1csc(SCC(=O)Nc2cccc(C)c2C)n1 | -2%

An excerpt; count on the stated rates, not on these rows.
